Screening results deposited in PubChem by ICCB-Longwood Screening Facility, Harvard Medical School.
Polio RdRp inh: inhibitors of poliovirus RNA polymerase binding and polymerization; P03300; poliovirus polymerase elongation, fluorescence polarization; active compounds read low; % elongation, % (compound at 16.7 µg/mL); 150,000 compounds, 0.66% hits; in the data active = % elongation below about 90%; also: some results filed as inactive read as strong as hits
Target sequence (P03300 1749-2209 limits assumed): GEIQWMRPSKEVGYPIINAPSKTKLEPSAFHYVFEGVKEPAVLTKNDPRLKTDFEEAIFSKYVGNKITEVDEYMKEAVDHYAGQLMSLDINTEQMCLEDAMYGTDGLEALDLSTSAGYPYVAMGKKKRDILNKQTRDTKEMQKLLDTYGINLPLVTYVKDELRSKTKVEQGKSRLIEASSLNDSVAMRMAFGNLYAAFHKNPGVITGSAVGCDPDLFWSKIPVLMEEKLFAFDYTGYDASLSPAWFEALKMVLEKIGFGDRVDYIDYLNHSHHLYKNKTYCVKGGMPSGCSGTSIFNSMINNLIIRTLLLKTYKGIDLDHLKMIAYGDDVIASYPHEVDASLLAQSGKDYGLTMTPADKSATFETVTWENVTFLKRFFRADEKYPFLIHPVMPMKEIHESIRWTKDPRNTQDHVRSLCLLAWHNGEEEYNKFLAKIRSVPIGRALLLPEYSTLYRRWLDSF
Polio RdRp inh intensity: further read-out of Polio RdRp inh, marked with its call; % elongation; measured here: total intensity read-out; formula for this scale not given here;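 total fluorescence in place of polarization; lower means less elongation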
Numbers without * were called inactive. Not all compounds are listed (hit frequency here may not be typical).

SMILES	Polio RdRp inh	Polio RdRp inh intensity
CCOc1ccc(NC(=O)Cn2c3ncccc3c(=O)n2-c2ccc(CC)cc2)cc1	110	115
CCS(=O)(=O)c1oc(-c2ccc(F)cc2)nc1S(=O)(=O)c1ccccc1	109	110
O=C(CSc1nc(-c2ccccc2)[nH]c1-c1ccccc1)Nc1ccc2c(c1)OCCO2	112	112
CCN(CC)c1ccc(-n2nc3cc(C)c(NC(=O)c4ccccc4F)cc3n2)cc1	111	110
O=C(c1ccc2c(c1)N(Cc1ccc(F)cc1)C(=O)c1ccccc1S2(=O)=O)N1CCCCC1	100	104
Cc1ccc(-c2nc(S(=O)(=O)c3ccc(C)cc3)c(SCC(=O)Nc3ccc(F)cc3)o2)cc1	103	106
CCOc1ccc(NC(=O)c2ccc(F)c(S(=O)(=O)N(CC)Cc3ccccc3)c2)cc1	109	107
O=C(CC1N=C2c3ccccc3N=C(SCc3cccc(F)c3)N2C1=O)NC1CCCCC1 (stereo not given)	107	112
CC(C)c1ccc2occ(CC(=O)N(Cc3ccc(F)cc3)C3CCS(=O)(=O)C3)c2c1 (stereo not given)	112	112
CCOCCCNC(=O)C(c1ccc(OC)cc1)N(Cc1cccs1)C(=O)CNC(C)=O (stereo not given)	101	102
Cc1cccn2c(=O)c3cc(C(=O)Nc4ccc(Cl)c(Cl)c4)sc3nc12	101	101
CC(=O)c1ccc(NC(=O)c2nc3nc(C)cc(C(F)F)n3n2)cc1	101	106
COc1ccc(-c2nc3c(c(SCC(=O)Nc4cccc(O)c4)n2)Cc2c(CO)cnc(C)c2O3)cc1	104	101
CCc1nn(CC(=O)N2CCCCC2)c(=O)c2cc3sccc3n12	101	106
CCOC(=O)C1CCN(C(=O)CSc2c3c(nc4ccc(Cl)cc24)CCCC3)CC1	99	103
CCOc1ccc(S(=O)(=O)N(C(=O)c2ccncc2)c2ccc3oc(C)c(C(=O)OC)c3c2)cc1	103	104
Cc1ccc(C)c(N2C(=O)N(Cc3ccccc3C)c3ccccc3S2(=O)=O)c1	102	97
CCn1ccc2cc(S(=O)(=O)N3CCCN(C(=O)Nc4cc(Cl)ccc4C)CC3)ccc21	111	112
CCn1c(C(=O)Nc2ccc(C)cc2C)cc2sc(Cl)cc21	105	103
COc1ccc(-n2ncc(C(=O)NCc3ccco3)c2C2CCN(C(=O)OC(C)(C)C)CC2)cc1	111	110
Cc1ccc(C)c(C(=O)N2CCC(c3nc4c(nnn4Cc4ccccc4)c(=O)[nH]3)CC2)c1	110	103
Cc1ccc(N(C)C(=O)Cn2cc(S(=O)(=O)N3CCCC3)c(S(=O)(=O)N3CCCC3)c2)cc1	105	109
Cc1cccc(NC(=O)CSc2nccn2-c2cccc(Cl)c2)c1C	112	110
COCCNc1cc(N2CCN(C3CCCCC3)CC2)c2noc3c2c1C(=O)c1ccccc1-3	102	87
Cn1c(=O)n(CC(=O)O)c(=O)c2c1nc1n2CCCN1c1ccc(Cl)cc1	107	108
Cc1ccc(/C=C/c2onc(C)c2S(=O)(=O)N2CCC(C(=O)Nc3ccc(Br)c(C)c3)CC2)cc1	98	103
CCCN(CCC)CCNC(=O)Cn1cnc2sc(C)c(S(=O)(=O)N3CCN(c4ccccc4OC)CC3)c2c1=O	108	111
Cc1ccc(-c2cc3ncc(C(=O)c4cc(Cl)c(C)cc4O)cn3n2)cc1	102	105
CCOC(=O)c1cccc(NC(=O)c2cc(S(=O)(=O)N3CCCCCC3)cn2C)c1	107	111
Cc1ccc(-c2nnc3ccccc3c2C(=O)Nc2cccc(C(F)(F)F)c2)cc1	103	97
COc1ccc(-c2c(C)c3ccc(O)c(CN4CCOCC4)c3oc2=O)cc1	112	110
O=C(CC(c1cccs1)N1Cc2ccccc2C1=O)Nc1ccc(Cl)cc1 (stereo not given)	115	108
Cc1cccc(CCNC(=O)c2cc(S(=O)(=O)N3CCCCC3)c[nH]2)c1	111	107
CCn1cc(C(=O)NCc2ccccc2OC)c(=O)c2cc(S(=O)(=O)N3CCCCCC3)ccc21	104	105
CCc1nnc(SCc2c(F)cccc2Cl)c2cc3sccc3n12	107	112
O=C(c1ccccc1)N1CCCC(c2nc3c(nnn3Cc3ccc(F)cc3F)c(=O)[nH]2)C1 (stereo not given)	106	104
CCOc1ccc(CCNC(=O)CSc2cc(=O)n(C)c3ccc(Cl)cc23)cc1OCC	105	99
CCc1cccc(CC)c1NC(=O)CN(C)S(=O)(=O)c1ccc2c(c1)n(C)c(=O)c(=O)n2C	100	103
CCN(CC)CCCNC(=O)c1c(C)oc2ncnc(N3CCOCC3)c12	108	104
Cc1cccc(N2CCN(C(=O)NCc3noc4ccccc34)CC2)c1C	106	113
Cc1cc(C)cc(NC(=O)C(C)N2Cc3ccccc3C2=O)c1 (stereo not given)	110	111
COc1ccc(CNC(=O)CN(C)S(=O)(=O)c2ccc3[nH]c4c(c3c2)CCCC4)cc1	104	109
COc1ccccc1-c1cc(C(F)(F)F)nc(S(=O)(=O)CCCC(=O)Nc2cc(Br)ccc2O)n1	106	107
CCCCC(CC)Cn1c(Oc2ccccc2)nc2c1c(=O)n(C)c(=O)n2C (stereo not given)	110	110
COc1ccc(-c2nsc(NC(=O)COc3ccccc3OC)n2)cc1	108	111
Cc1cccc(N2CCN(C(=O)CCS(=O)(=O)c3ccc4c(c3)oc(=O)n4C)CC2)c1C	116	112
Cc1nc2c(-c3ccccc3)c(C)nn2c(C)c1CCC(=O)NCc1cccc(Cl)c1	110	104
O=C(CN1CCCN(Cc2ccc(F)cc2)S1(=O)=O)Nc1ccc2c(c1)OCCO2	107	94
CC1CCc2onc(C(=O)Nc3ccc(Cl)cc3)c2C1 (stereo not given)	108	110
Clc1ccc2nc(Nc3ccccc3Cl)nc(-c3ccccc3)c2c1	105	112
Cc1ccc(NS(=O)(=O)c2ccc3[nH]c4c(c3c2)CCCC4)cc1N(C)C	103	104
Cc1ccc2scc(N3CCN(c4ccccc4)CC3)c(=O)c2c1	108	108
NC(=O)c1c(NC(=O)CS(=O)(=O)c2ccc(Cl)cc2)sc2c1CCCC2	97	97
Cc1nc2scc(C)n2c(=O)c1S(=O)(=O)Nc1ccc(N2CCN(S(C)(=O)=O)CC2)cc1	102	106
CCOC(=O)CC(=O)CSc1nc2ccsc2c(=O)n1Cc1ccccc1	97	96
COc1ccc(C)cc1Nc1nc(N)c2cc(OC)c(OC)cc2n1	102	96
O=C(COc1ccc(F)cc1)Nc1ccc(C(=O)OCc2cc(=O)n3nc(C4CC4)sc3n2)cc1	100	106
COc1ccc(-c2cc3nc(C4CCN(C(=O)OC(C)(C)C)CC4)c(C(=O)Nc4cc(Cl)cc(Cl)c4)cn3n2)cc1	103	103
O=C(NC1CCCCC1)c1ccc(CSc2nc3cccnc3n2Cc2ccccc2F)cc1	110	107
Cc1c(C(=O)N2CCCCCC2)c(S(=O)(=O)NCc2ccc(Br)cc2)c(C)n1C	101	105

15 of the compounds above, comma-delimited.
compound,Polio RdRp inh,Polio RdRp inh intensity
Cc1cc(C)cc(NC(=O)C(C)N2Cc3ccccc3C2=O)c1 (stereo not given),110,111
COc1ccc(CNC(=O)CN(C)S(=O)(=O)c2ccc3[nH]c4c(c3c2)CCCC4)cc1,104,109
COc1ccccc1-c1cc(C(F)(F)F)nc(S(=O)(=O)CCCC(=O)Nc2cc(Br)ccc2O)n1,106,107
CCCCC(CC)Cn1c(Oc2ccccc2)nc2c1c(=O)n(C)c(=O)n2C (stereo not given),110,110
COc1ccc(-c2nsc(NC(=O)COc3ccccc3OC)n2)cc1,108,111
Cc1cccc(N2CCN(C(=O)CCS(=O)(=O)c3ccc4c(c3)oc(=O)n4C)CC2)c1C,116,112
Cc1nc2c(-c3ccccc3)c(C)nn2c(C)c1CCC(=O)NCc1cccc(Cl)c1,110,104
O=C(CN1CCCN(Cc2ccc(F)cc2)S1(=O)=O)Nc1ccc2c(c1)OCCO2,107,94
CC1CCc2onc(C(=O)Nc3ccc(Cl)cc3)c2C1 (stereo not given),108,110
Clc1ccc2nc(Nc3ccccc3Cl)nc(-c3ccccc3)c2c1,105,112
Cc1ccc(NS(=O)(=O)c2ccc3[nH]c4c(c3c2)CCCC4)cc1N(C)C,103,104
Cc1ccc2scc(N3CCN(c4ccccc4)CC3)c(=O)c2c1,108,108
NC(=O)c1c(NC(=O)CS(=O)(=O)c2ccc(Cl)cc2)sc2c1CCCC2,97,97
Cc1nc2scc(C)n2c(=O)c1S(=O)(=O)Nc1ccc(N2CCN(S(C)(=O)=O)CC2)cc1,102,106
CCOC(=O)CC(=O)CSc1nc2ccsc2c(=O)n1Cc1ccccc1,97,96

Next section:
SMILES	Polio RdRp inh	Polio RdRp inh intensity
Cc1ccccc1C(=O)NCc1ccc2c(c1)CCN2C(=O)c1ccc(F)cc1	108	115
Cc1nn(C(C)(C)C)c(OC(=O)C(C)(C)C)c1Sc1ccccc1	107	109
CCNC(=O)CC1C(=O)N(c2ccc(C)cc2)C(=O)N1CCOC (stereo not given)	104	102
Oc1c(C(c2ccc(Cl)cc2Cl)N2CCN(c3ccccc3)CC2)sc2nc(-c3ccco3)nn12 (stereo not given)	111	110
COc1ccc(-c2cc(NCc3ccc(F)cc3)n3cnnc3n2)cc1	108	109
COc1ccc(NC(=O)CCn2nc(-c3ccc(Cl)cc3)c3ccccc3c2=O)cc1	103	107
CCN(CC)C(=O)Cn1c(=O)n(Cc2ccc(C(=O)NCc3ccccc3Cl)cc2)c(=O)c2ccccc21	109	107
CC(C)c1cnc2c(c1SCC(=O)Nc1ccccc1C(F)(F)F)c(=O)n(C)c(=O)n2C	107	106
COc1ccc(-c2cn3cccnc3n2)cc1NC(=O)Cc1ccccc1	110	115
CCn1cc(C(=O)NCCc2ccc(OC)c(OC)c2)c(=O)c2cc(S(=O)(=O)N3CCCCCC3)ccc21	107	106
CCn1cc2nc(SCc3c(F)cccc3Cl)n(CCc3ccccc3)c(=O)c2n1	106	110
Cc1nnc2c(N3CCN(c4ccccc4F)CC3)nc3ccccc3n12	102	105
CC(C)(C)OC(=O)N1CCC(c2c(C(=O)NCCN3CCC(Cc4ccccc4)CC3)cnn2-c2cccc(Cl)c2)CC1	110	88
CCc1nn(CC(=O)N2CCC(C)CC2)c(=O)c2cc3occc3n12	110	102
COC(=O)c1cc(NC(=O)c2ccc3c(c2)N(Cc2cccc(Cl)c2)C(=O)c2ccccc2S3=O)cc(C(=O)OC)c1 (stereo not given)	103	106
Cc1ccc(CNC(=O)CCCn2c(=O)c3ccccc3n(CC(=O)Nc3ccc(C)cc3)c2=O)cc1	112	110
O=C(c1ccc(F)cc1)N1CCC(c2nc3ccccc3s2)CC1	102	104
COc1ccccc1-n1nc(-c2ccccc2)c2cnc3cc(C(F)(F)F)ccc3c21	104	106
COc1ccc(NC(=O)C2CCCN(S(=O)(=O)c3ccc4c(c3)CCCC(=O)N4)C2)c(OC)c1 (stereo not given)	109	113
CCOC(=O)c1ccc(Nc2c(-c3ccc(O)c(OC)c3)nc3nc[nH]n23)cc1	104	113
CCCC(=O)Nc1cccc(-c2nc3ncccc3o2)c1	107	111
CC(C)c1ccc(NC(=O)C(Cc2ccccc2)NS(=O)(=O)c2ccc3c(c2)oc(=O)n3C)cc1 (stereo not given)	106	105
O=C(CSc1nc2c([nH]c3ccccc32)c(=O)n1-c1ccccc1)Nc1cccc(C(F)(F)F)c1	105	110
COc1ccc(NC(=O)Cn2c(=O)n(Cc3ccccc3Cl)c(=O)c3cc(OC)c(OC)cc32)cc1	111	108
Cc1cccn2c(=O)c(/C=C(\C#N)c3nc4ccccc4[nH]3)c(Oc3ccc(C(C)(C)C)cc3)nc12	102	109
CCn1c(COc2cccc(C)c2)nc2ccccc21	103	99
COCCn1c(C)cc(O)c(C(c2ccccc2Cl)N2CCN(c3ccccc3)CC2)c1=O (stereo not given)	105	109
CC(=O)c1ccc(NC(=O)c2nc(-c3ccc(Cl)cc3)n3c2CCCCC3)cc1	109	117
COc1cccc(-n2c(C)nc3cc(C(=O)O)ccc32)c1	99	100
CCN(CC)CCNC(=O)c1cc2c(=O)oc3ccc(C)cc3c2s1	89*	89*
Cc1ccc(NS(=O)(=O)c2c(C(=O)N3CCC(C)CC3)c(C)n(C)c2C)cc1Cl	112	101
COc1ccc(C2CC(=O)c3cc(-c4nc(-c5cccc([N+](=O)[O-])c5)cs4)c(=O)n(-c4ccccc4N)c3C2)cc1 (stereo not given)	102	104
COc1ccccc1CNC(=O)CC(c1ccc(C)cc1)N1Cc2ccccc2C1=O (stereo not given)	109	112
CCOc1ccc(N2CC(c3nc4ccccc4n3Cc3cccc(Cl)c3)CC2=O)cc1 (stereo not given)	105	108
CCOc1ccc(CNC(=O)c2ccc3c(c2)c(C)c(C)n3Cc2ccccc2)cc1OC	114	114
CCCCCNC(=O)c1ccc2c(c1)ncn2-c1cccc(C)c1	98	106
CC(=O)Nc1cccc(NC(=O)CSc2cn(CC(=O)N3CCCCCC3)c3ccccc23)c1	110	116
CCc1ccc(NC(=O)CSc2nccn2-c2cccc(C)c2C)cc1	102	104
O=C(NCCC1=CCCCC1)c1ccc2c(c1)N(Cc1cccc(Cl)c1)C(=O)c1ccccc1S2(=O)=O	107	116
Cc1ccc(C(c2cccc(Br)c2)c2c(C)[nH]c3ccccc23)s1 (stereo not given)	108	109
COc1cccc(CNC(=O)Cn2c(=O)oc3cc(S(=O)(=O)N4CCCCCC4)ccc32)c1	108	101
CCOC(=O)c1ccc(-c2ccc(/C=C(\C#N)C(=O)Nc3ccc(OCC)cc3)o2)cc1	103	108
Cc1cccc(Cn2c(=O)n(Cc3ccc4c(c3)OCO4)c(=O)c3oc4ccccc4c32)c1	105	110
CCc1ccc(CNC(=O)c2cnc3sc(N4CCCC4)nn3c2=O)cc1	111	110
O=C(Nc1ccc(Br)cc1F)c1cc(S(=O)(=O)NC2CCCC2)ccc1F	102	97
COc1cccc(CNC(=O)C2CCCN(S(=O)(=O)c3cn(C)cn3)C2)c1 (stereo not given)	109	113
Cc1ccc2oc(=O)n(Cc3ccccc3Cl)c2c1	99	101
CCOc1ccccc1-c1nc(C(N)=O)c2c(n1)n(-c1ccc3c(c1)OCO3)c(=O)n2C	108	114
